Source: PubChem (National Center for Advancing Translational Sciences (NCATS))
RE007 growth inh = less growth of the S. pombe RE007 Vpr strain; AID 651644; Potency, µM (highest dose often 92.2 µM), without a hit: at the highest dose activity change, negative = less growth; 360,000 compounds, 0.21% hits; S. pombe RE007 Vpr strain, BacTiter-Glo ATP luminescence, 24 h; control for the full effect not named in the record; active = well fitted falling curve with a large enough effect; inconclusive = small, poorly fitted or top-dose-only effect; inactive = no such curve, though single readings can be large or run the other way;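 also: % is scaled to controls: 0 for no effect and ±100 for the full control effect; nearly all actives have a fitted effect of over 50% in size; the assay follows cell death caused by Vpr and the record does not say whether a fall means rescue or toxicity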
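Fission yeast strain RE007, carrying one chromosomally integrated HIV-1 vpr copy, was seeded at OD 0.01 in PMG+AL medium with 23 nL pinned compound. After 24 h at 30 °C and 99% humidity, viability was read by BacTiter-Glo luminescence.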
2A StopGo = FMDV 2A StopGo reporter, luciferase signal | AID 1159524 | human cells with a luciferase reporter of 2A StopGo recoding; control for the full effect not named in the record | Potency, µM (series often up to 57.9 µM), for the others: at the top dose signal change, negative = less light | 410,000 compounds, 1.2% hits; active = well fitted falling curve with a large enough effect; inconclusive = small, poorly fitted or top-dose-only effect; inactive = no such curve, though single readings can be large or run the other way; tested in HEK293T cells; also: % is scaled to controls: 0 for no effect and ±100 for the full control effect; nearly all actives have a fitted effect of over 45% in size; luciferase light after 4 h
SARS PLpro yeast = blocks SARS-CoV papain-like protease in a yeast assay | S. cerevisiae expressing SARS-CoV PLpro, growth rescue; control for the full effect not named in the record | Potency, µM (titrated, usually from 32.9 µM), without a hit: at the top dose activity, positive = growth rescue | 330,000 compounds, 0.19% hits | AID 485353; active means well fitted rising curve with a large enough effect; inconclusive means small, poorly fitted or top-dose-only effect; inactive means no such curve, though single readings can be large or run the other way; also: 0% is about no effect; nearly all actives have a fitted effect of over 55% in size; growth read by luminescence after 48 h
The depositor's hits bear a star; u = inconclusive; [ ] = remark or other dose. Potency is read from the fitted curve at half-maximal effect.

SMILES	RE007 growth inh	2A StopGo	SARS PLpro yeast
COc1ccc(NC(=O)NNc2cc(N3CCOCC3)nc(N3CCOCC3)n2)cc1	15%	5%	0%
COc1ccc([C@H]2CC(=O)C=C(c3cc(C(F)(F)F)cc(C(F)(F)F)c3)C2)cc1	7%	-21%	-7%
CN(C)C1=NC[C@H](Cc2ccccc2)N1CC1CCCCC1	-23%	-19%	-2%
Cc1nc(Cc2nnc(SC(C)C(=O)N3c4ccccc4NC(=O)C3(C)C)o2)cs1 (stereo not drawn)	3%	-10%	12%
N#Cc1ccsc1NC(=O)COC(=O)C1=NNC(=O)CC1	-5%	6%	1%
CC[C@]12c3[nH]c4ccccc4c3CCN1C(=O)C(CC(=O)NC/C=C(\C)CCC=C(C)C)C[C@@H]2C(=O)N1CCN(C(=O)c2ccco2)CC1 (stereo partly drawn)	5%	u	1%
CCOC(=O)c1cc(CC)sc1NC(=O)CC1SC(N)=NC1=O (stereo not drawn)	27%	-15%	-1%
CC(C)NC(=O)Nc1ccc2c(c1)C(=O)N([C@H](C)CO)C[C@H](C)[C@@H](CN(C)S(C)(=O)=O)O2	-3%	-3%	14%
CN(CC(=O)Nc1cccc(F)c1)CC(=O)Nc1cccc2ccccc12	11%	u	2%
COc1ccc(C(C)=O)cc1CC(=O)Nc1cccc(S(=O)(=O)N2CCOCC2)c1	26%	-9%	3%[6.58 µM]

Taken from above:
For RE007 growth inh, `CC[C@]12c3[nH]c4ccccc4c3CCN1C(=O)C(CC(=O)NC/C=C(\C)CCC=C(C)C)C[C@@H]2C(=O)N1CCN(C(=O)c2ccco2)CC1` (stereo partly drawn) is entered as 5%
For RE007 growth inh, `COc1ccc(C(C)=O)cc1CC(=O)Nc1cccc(S(=O)(=O)N2CCOCC2)c1` is entered as 26%
For SARS PLpro yeast, `CN(CC(=O)Nc1cccc(F)c1)CC(=O)Nc1cccc2ccccc12` is entered as 2%

In a second layout: results already given
SMILES | RE007 growth inh | 2A StopGo | SARS PLpro yeast
CC(C)NC(=O)Nc1ccc2c(c1)C(=O)N([C@H](C)CO)C[C@H](C)[C@@H](CN(C)S(C)(=O)=O)O2 | -3% | -3% | 14%
CN(CC(=O)Nc1cccc(F)c1)CC(=O)Nc1cccc2ccccc12 | 11% | u | 2%

Next part.
SMILES	RE007 growth inh	2A StopGo	SARS PLpro yeast
CCOC(=O)CCCCCC(=O)Nc1ccc2c(c1)CC(=O)N([C@H](C)CO)C[C@H](C)[C@H](CN(C)S(=O)(=O)c1ccc(OC)cc1)O2	-1%	-25%	2%
N#Cc1ccc(C(=O)OCC(=O)Nc2cccc(S(=O)(=O)N3CCCCC3)c2)cc1	8%	-20%	-2%
CCOc1ccc(N2CC(C(=O)NCC(=O)Nc3ccc(F)c(F)c3F)CC2=O)cc1 (stereo not drawn)	9%	8%	0%
COc1ccccc1NC(=O)c1ccc(Cl)c(S(=O)(=O)NCc2ccco2)c1	5%	21%	-4%
CCOc1ccc(CN(C)C(=O)CN2C(=O)NC3(CCCc4ccccc43)C2=O)cc1 (stereo not drawn)	11%	0%	-4%
CCN(C(=O)c1cc(S(=O)(=O)N2CCCC2)ccc1C)C1CCS(=O)(=O)C1 (stereo not drawn)	1%	-17%	1%
O=C1C=C(NNC(=O)c2ccncc2)CC(c2ccccc2)C1 (stereo not drawn)	4%	-17%	-4%
O=C(CSc1nnc(-c2ccc(Cl)cc2)o1)NNC(=O)c1ccncc1	-11%	57%[activator]	4%
Cc1ccc(SCC(=O)Nc2ccc(N3CCOCC3)cc2)cc1C	2%	-22%	6%
CC(=O)/C=C/c1ccccc1O	-14%	-19%	0%
COc1ccc(N2CCN(C(=S)NC(C)c3ccccc3)CC2)cc1 (stereo not drawn)	-17%	-1%	1%
CC(=O)c1cccc(OCC(=O)N(Cc2ccco2)c2c(N)n(Cc3ccccc3)c(=O)[nH]c2=O)c1	0%	-11%	-5%
COc1cc(C(=O)NCc2cccs2)ccc1OCc1c(C)noc1C	2%	0%	3%
C=C[C@H]1[C@H](O[C@@H]2O[C@H](CO)[C@@H](O)[C@H](O)[C@H]2O)OC=C2C(=O)OCC[C@]21O	-2%	-16%	-3%
CN(C(=O)c1cccc(NC(=O)Cc2cccc([N+](=O)[O-])c2)c1)C1CCC1	11%	-19%	-24%
CCNC(=O)N(CC)C[C@H]1N[C@@](C)(C(=O)OC)[C@H]2C(=O)N(C)C(=O)[C@@H]12	8%	-10%	0%
COc1ccccc1NS(=O)(=O)c1ccc(C(=O)NCc2ccncc2)cc1	10%	-1%	1%
COc1ccc2c3n(nc2c1)CCN=C3c1ccc(Cl)cc1	-6%	14%	7%
C[C@H](CO)N1C[C@H](C)[C@@H](CN(C)C(=O)Nc2ccccc2)Oc2ccc(NC(=O)CCC(F)(F)F)cc2C1=O	-3%	7%	-28%
COc1ccc(NC(=O)CN2C(=O)NC(CC(C)C)C2=O)cc1S(=O)(=O)N1CCOCC1 (stereo not drawn)	10%	-4%	1%
CCCCCCCCCC(=O)N[C@@H]1c2cc(OC)c(OC)cc2C[C@H]1OCc1ccccc1	-5%	0%	5%
COc1cccc(NC(=O)c2cccc(Cl)c2)c1	u	32%[activator]	5%
COc1ccc(NC(C)=O)cc1NC(=O)c1ccc(C#N)cc1	10%	-1%	2%
CCN(CC(=O)Nc1ccc(NC(C)=O)cc1)C(=O)c1ccc2c(c1)OCO2	3%	3%	-10%
C[C@@H]1O[C@@H](O[C@@H]2C(=O)c3c(O)cc(O)cc3O[C@H]2c2ccc(O)c(O)c2)[C@H](O)[C@H](O)[C@H]1O	-2%	-12%	1%
COc1ccc(CCC2(C)NC(=O)N(C(C)C(=O)N3c4ccccc4CC3C)C2=O)cc1 (stereo not drawn)	-5%	-19%	-17%
Cc1onc(-c2ccccc2)c1C(=O)OCC(=O)Nc1cccc(Cl)c1	-4%	-16%	-2%
C[C@@H]1CN([C@@H](C)CO)C(=O)Cc2cc(NC(=O)Nc3cccc4ccccc34)ccc2O[C@@H]1CN(C)S(C)(=O)=O	-14%	-13%	-2%
CC(=O)c1cccc(S(=O)(=O)Nc2ccccc2N2CCOCC2)c1	2%	-7%	-10%
COc1cc(Cl)c(C)cc1NCC(=O)Nc1cccc(S(=O)(=O)N2CCCC2)c1	4%	-5%	6%
Cc1ccc(NS(=O)(=O)c2cccc(C(=O)NC3CC3)c2)c(C)c1	4%	-6%	-12%
Cc1cccc(OCc2nnc(SCC(=O)N3CC(=O)Nc4ccccc43)o2)c1	3%	-25%	2%
Cc1c(NC(NC(=O)CC(C)C)C(Cl)(Cl)Cl)c(=O)n(-c2ccccc2)n1C (stereo not drawn)	3%	-4%	-6%
Cc1cccc(C(=O)OCC(=O)NCc2ccc3c(c2)OCO3)c1C	-3%	-5%	-11%
COc1ccc2c(c1)[C@H]1[C@H](CO2)[C@H](c2ccccc2)[C@]2(C)C(=O)Nc3cc(C)ccc3C(=O)N12	-3%	-25%	-8%
COC(=O)C1=C(c2ccc(Cl)c(C(F)(F)F)c2)C[C@@H]2CC[C@H]1N2C(=O)NCCOc1ccccc1	13%	u	-14%
CCN(CC(=O)Nc1ccc2c(c1)OCCO2)C(=O)c1ccccc1Br	-22%	35%[activator]	-5%
Cc1ccc(NC(=O)c2nc[nH]c2C(=O)NCCN(CCNC(=O)c2[nH]cnc2C(=O)Nc2ccc(C)cc2)CCNC(=O)c2[nH]cnc2C(=O)Nc2ccc(C)cc2)cc1	10%	-11%	2%
Cc1ccccc1-c1cc(C(=O)NCc2ccc3c(c2)OCO3)n(CC2CC(c3cccnc3)=NO2)n1 (stereo not drawn)	5%	1%	-1%
C[C@H](CO)N1C[C@H](C)[C@@H](CN(C)Cc2ccccc2)Oc2c(NC(=O)Cc3ccccc3)cccc2C1=O	-8%	10%	7%
COc1ccc(-c2nc3ccc(C)cn3c2NCc2ccccc2)cc1SC1CCCCC1	u	20µM*	1%
CN1CCN(NC(=O)c2cccc(S(=O)(=O)N3CCCCCC3)c2)CC1	-8%	-6%	-2%
COc1ccc(OC)c(NC(=O)CN2C(=O)C(C)N(c3ccc(C)cc3)C2=O)c1 (stereo not drawn)	5%	-1%	1%
COc1cc2c(cc1C=O)OC(C)C2 (stereo not drawn)	2%	-18%	1%
O=C1CC[C@H](O)CCN1CCSc1ccc(Br)cc1	-9%	24%	-3%
C#CCOCCOCCOCCNc1nc(N2CCN(C(=O)CCCCCCCCCCNC(=O)Cn3cc(C[C@@H](C)O)nn3)CC2)nc(N2CCN(C(=O)CCCCCCCCCCNC(=O)[C@H](CCCCN)n3cc(CCCC(=O)O)nn3)CC2)n1	-19%	-6%	1%
O=C(O)CN1C(=O)/C(=C/c2ccc(SCc3ccccc3)o2)SC1=S	5%	-19%	4%
COc1ccc(N2CC(O)=C(c3nc(-c4ccc(Cl)cc4)cs3)C2=N)cc1	5%	-12%	-2%
Cc1cccc([C@@H]2[C@@H]3C(=O)N(Cc4ccccc4)C(=O)[C@@H]3[C@]3(Cc4ccccc4)C(=O)N(c4ccccc4)C(=O)N23)c1	0%	0%	-13%
CCOC(=O)c1c(C)[nH]c(C(=O)COC(=O)Cn2cc(C(F)(F)F)ccc2=O)c1C	-4%	3%	-7%

Following part:
SMILES	RE007 growth inh	2A StopGo	SARS PLpro yeast
CC(C)Oc1ccc(C(=O)OCC(=O)NC2CCCCCC2)cc1	-10%	u	-5%
CCCCn1c(N)c(N(CCOC)C(=O)c2ccc(OCc3c(C)noc3C)cc2)c(=O)[nH]c1=O	-3%	0%	-10%
Cc1ccc(C(C)(C)C)cc1S(=O)(=O)Nc1ncnc2sccc12	11%	76%[activator]	3%
CC(C)N(C(=O)COC(=O)c1ccc(Cl)s1)c1ccccc1	1%	-12%	2%
CSc1ncccc1C(=O)OCC(=O)NC(C)(C)C	-7%	22%	0%
CC(C)Cn1c(SCC(=O)N2CCN(C(=O)c3ccco3)CC2)nc2ccccc2c1=O	2%	-12%	1%
CC1(NC(=O)/C=C/c2nc3ccccc3s2)CCS(=O)(=O)C1 (stereo not drawn)	5%	7%	5%
CC[C@H](C)[C@@H](C(=O)N1CCCC1c1nccs1)N(C)C(=O)[C@H](CC(C)C)N(C)C(=O)[C@H](Cc1ccc(OC)cc1)N(C)C(=O)/C=C(\C)OC (stereo partly drawn)	4%	0%	u
O=S(=O)(N(Cc1ccccc1)[C@H](CO)Cc1ccccc1)N(Cc1ccccc1)[C@H](CO)Cc1ccccc1	4%	-2%	2%
COc1cc2cc(CCCOC(=O)c3ccc(C#N)cc3)oc(=O)c2cc1OC	8%	-21%	6%

Molecules shown so far that have a Cl atom:
SMILES	RE007 growth inh	2A StopGo	SARS PLpro yeast
COc1ccccc1NC(=O)c1ccc(Cl)c(S(=O)(=O)NCc2ccco2)c1	5%	21%	-4%
O=C(CSc1nnc(-c2ccc(Cl)cc2)o1)NNC(=O)c1ccncc1	-11%	57%[activator]	4%
COc1ccc2c3n(nc2c1)CCN=C3c1ccc(Cl)cc1	-6%	14%	7%
COc1cccc(NC(=O)c2cccc(Cl)c2)c1	u	32%[activator]	5%
Cc1onc(-c2ccccc2)c1C(=O)OCC(=O)Nc1cccc(Cl)c1	-4%	-16%	-2%
COc1cc(Cl)c(C)cc1NCC(=O)Nc1cccc(S(=O)(=O)N2CCCC2)c1	4%	-5%	6%
Cc1c(NC(NC(=O)CC(C)C)C(Cl)(Cl)Cl)c(=O)n(-c2ccccc2)n1C (stereo not drawn)	3%	-4%	-6%
COC(=O)C1=C(c2ccc(Cl)c(C(F)(F)F)c2)C[C@@H]2CC[C@H]1N2C(=O)NCCOc1ccccc1	13%	u	-14%
COc1ccc(N2CC(O)=C(c3nc(-c4ccc(Cl)cc4)cs3)C2=N)cc1	5%	-12%	-2%
CC(C)N(C(=O)COC(=O)c1ccc(Cl)s1)c1ccccc1	1%	-12%	2%

Not all compounds are listed (hit frequency here may not be typical).
